FEN1 inh = blocks human flap endonuclease 1; P39748; 390,000 tested, 0.35% active; Recombinant FEN1 flap cleavage, fluorescence, 15 min; Potency, µM (doses to about 114 µM), for inactives: at the highest dose activity change, negative = inhibition, most hits filed as inhibitors; active = well fitted inhibition curve with a large enough effect; also: nearly all actives have a fitted effect of over 65% in size
Target sequence (P39748 whole entry, looked up): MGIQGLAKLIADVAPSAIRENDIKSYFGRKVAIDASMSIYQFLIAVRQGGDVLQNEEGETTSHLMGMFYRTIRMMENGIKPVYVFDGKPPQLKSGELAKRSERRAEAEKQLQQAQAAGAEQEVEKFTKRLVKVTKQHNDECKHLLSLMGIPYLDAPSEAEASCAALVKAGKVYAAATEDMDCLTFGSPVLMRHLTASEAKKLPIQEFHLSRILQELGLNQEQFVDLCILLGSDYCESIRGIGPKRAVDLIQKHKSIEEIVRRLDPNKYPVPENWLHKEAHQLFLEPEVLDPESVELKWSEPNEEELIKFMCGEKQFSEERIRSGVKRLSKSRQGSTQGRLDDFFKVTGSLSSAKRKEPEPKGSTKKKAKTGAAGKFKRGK
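Reaction started by adding substrate (50 nM final) to 10 nM enzyme after 15 min room-temperature compound preincubation. Reads at 0 and 15 min, with data normalized and fitted to a four-parameter Hill equation.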
The depositor's hits bear a star. % is scaled to controls: 0 for no effect and ±100 for the full control effect; potency is read from the fitted curve at half-maximal effect. Some of the compounds tested, and most or all hits are left out here.

Sample of the layout (16 entries):
Structure,FEN1 inh
Cc1ccc(N=Cc2cc(C)n(C3CCCC3)c2C)cc1,-18%
C=CCn1c(C(C)NC(=O)c2ccccc2)n[nH]c1=S (stereo not given),0%
COCCOc1cc2ncnc(N3CCC(C(=O)O)CC3)c2cc1OCCOC,8%
CCCNS(=O)(=O)c1ccc2c(c1)CCCN2C(C)=O,-2%
CCOC(=O)c1sc(NC(=O)c2cccnc2)c(C#N)c1C,-3%
O=C(Cn1cnc2ccccc2c1=O)NCC(=O)N1CCOCC1,-3%
CCCC(c1nnnn1C(C)(C)CC)N(CCCO)Cc1cc2cc(C)cc(C)c2[nH]c1=O (stereo not given),-15%
CCOC(=O)c1ccc(NC(=S)Nc2ccccn2)cc1,3%
COc1ccc(NC(=O)c2c(NC(=O)CNCc3ccco3)sc3c2CCC3)c(OC)c1,-8%
CN(Cc1ccc(C(C)(C)C)cc1)C(=O)C1CCN(C(=O)Nc2ccccc2)CC1,-15%
CCOc1cccc2sc(N(CCN(C)C)C(=O)c3ccc(Br)s3)nc12,15%
CCN1C(C(=O)Nc2cc(C)on2)=C(O)c2ccccc2S1(=O)=O,-14%
CN(C)S(=O)(=O)c1cc(NC(=O)CNCCN2CCOCC2)ccc1Cl,3%
Cn1c(N)c(C(=O)COC(=O)CN2C(=O)c3ccccc3C2=O)c(=O)n(C)c1=O,2%
CCCCC(=O)Nc1cccc(NC(=S)NC(=O)Cc2ccccc2)c1,-2%
COc1ccc(NS(=O)(=O)c2ccc3c(c2)CCO3)cc1,9%

This part in full, repeating the preview:
Structure,FEN1 inh
Cc1ccc(N=Cc2cc(C)n(C3CCCC3)c2C)cc1,-18%
C=CCn1c(C(C)NC(=O)c2ccccc2)n[nH]c1=S (stereo not given),0%
COCCOc1cc2ncnc(N3CCC(C(=O)O)CC3)c2cc1OCCOC,8%
CCCNS(=O)(=O)c1ccc2c(c1)CCCN2C(C)=O,-2%
CCOC(=O)c1sc(NC(=O)c2cccnc2)c(C#N)c1C,-3%
O=C(Cn1cnc2ccccc2c1=O)NCC(=O)N1CCOCC1,-3%
CCCC(c1nnnn1C(C)(C)CC)N(CCCO)Cc1cc2cc(C)cc(C)c2[nH]c1=O (stereo not given),-15%
CCOC(=O)c1ccc(NC(=S)Nc2ccccn2)cc1,3%
COc1ccc(NC(=O)c2c(NC(=O)CNCc3ccco3)sc3c2CCC3)c(OC)c1,-8%
CN(Cc1ccc(C(C)(C)C)cc1)C(=O)C1CCN(C(=O)Nc2ccccc2)CC1,-15%
CCOc1cccc2sc(N(CCN(C)C)C(=O)c3ccc(Br)s3)nc12,15%
CCN1C(C(=O)Nc2cc(C)on2)=C(O)c2ccccc2S1(=O)=O,-14%
CN(C)S(=O)(=O)c1cc(NC(=O)CNCCN2CCOCC2)ccc1Cl,3%
Cn1c(N)c(C(=O)COC(=O)CN2C(=O)c3ccccc3C2=O)c(=O)n(C)c1=O,2%
CCCCC(=O)Nc1cccc(NC(=S)NC(=O)Cc2ccccc2)c1,-2%
COc1ccc(NS(=O)(=O)c2ccc3c(c2)CCO3)cc1,9%
COc1ccc(OC)c2[nH]c(C(=O)O)cc12,-5%
N=C(N)c1ccc(OCCCCCOc2ccc(C(=N)N)cc2)cc1,-17%
CCOc1cc(/C=N/NC(=O)c2cccnc2)ccc1OC(=O)c1ccco1,5%
COc1ccc2c(c1)CC(C1(O)C(=O)N(C)c3ccccc31)C2=O (stereo not given),7%
CC(C)OP(=O)(OC(C)C)C1(NS(=O)(=O)c2ccc(Cl)cc2)C=C(Cl)C(=O)C(Cl)=C1,-2%
CCn1c(-c2ccccc2)csc1=Nc1ccc(S(=O)(=O)O)cc1,1%
O=C(c1ccccc1)N1N=C(c2ccc(F)cc2)CC1(O)C(F)(F)F (stereo not given),-6%
CC(=O)N1c2ccccc2NC2=C(C(=O)CCC2)C1c1cccnc1 (stereo not given),-3%
COc1cccc(-n2c(=O)c3ccccc3n(CC(=O)NCC3CCCO3)c2=O)c1 (stereo not given),13%
CC(=O)c1c(C)[nH]c(C(=O)CSc2nc3ccccc3c(=O)n2CCCN2CCOCC2)c1C,4%
Cc1cc(C)c(C(N)=O)c(Nc2ccc3c(c2)OCCO3)n1,0%
COc1cc(/C=C/C(=O)O)ccc1O,5%
COc1ccc(C)cc1N(CC(=O)N1CCCCCC1)S(=O)(=O)c1ccc(C)cc1,-13%
CCNc1nc(NC(C)C)nc(SCCOC(=O)c2ccccc2)n1,-3%
N#C/C(=C/c1cn[nH]c1-c1cccc(Br)c1)C(=O)O,11%
COc1ccc(C(=O)N2CCNC(=O)C2CC(=O)Nc2cccc(Cl)c2Cl)cc1 (stereo not given),1%
Cn1c(=O)[nH]c(=O)c2c1nc(Br)n2CCCCSc1nc2ccccc2o1,4%
Cc1sc2nc(C(C)C)nc(SCC(=O)N3CCOCC3)c2c1C,-7%
CCOC(=O)C1(Cc2cccc(OC)c2)CCCN(C(=O)CNC(C)=O)C1 (stereo not given),3%
COC(=O)C(NC(C)=O)(Nc1cccc(C)n1)C(F)(F)F (stereo not given),20%

Three structures out of the list, sorted by heavy-atom count, largest number first:
Structure,FEN1 inh
CC(=O)c1c(C)[nH]c(C(=O)CSc2nc3ccccc3c(=O)n2CCCN2CCOCC2)c1C,4%
COc1cccc(-n2c(=O)c3ccccc3n(CC(=O)NCC3CCCO3)c2=O)c1 (stereo not given),13%
COc1cc(/C=C/C(=O)O)ccc1O,5%

New compounds follow.
Structure,FEN1 inh
CCOC(=O)c1ccc(Nc2nc(C)cc(C)c2C#N)cc1,-4%
Cc1ccc(C2(C)NC(=O)N(CC(=O)Nc3ccccc3C(=O)N3CCCCC3)C2=O)cc1 (stereo not given),2%
CC1CCc2nc(N)c(C#N)c(-c3ccncc3)c2C1 (stereo not given),0%
COc1ccc(CCN2CC(C#N)=C3c4cc(OC)c(OC)cc4CCN3C2)cc1OC,-20%
CCNC(=S)NC1CC2CCCC(C1)N2CCc1ccccc1 (stereo not given),-2%

Bioassay records deposited in PubChem by National Center for Advancing Translational Sciences (NCATS).
